Screening results deposited in PubChem by Fisher Drug Discovery Resource Center.
NPYLR7 agonist = mosquito NPYLR7 agonism | 270,000 tested, 0.15% active | HEK293T NPYLR7/Galpha15, GCaMP6s calcium fluorescence | AID 1259423 | activation, % at 10 µM; in the data active = activation above about 40%;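 also: 0% = vehicle and 100% = reference agonist at the receptor; some compounds past the cut are filed as inactive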
NPYLR7 agonist max-min = recorded beside NPYLR7 agonist, whose call it bears; activation, %; measured here: Max-Min RFU normalised activation; some inactives read as strong as hits;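 span of the calcium signal over five minutes; 0% = vehicle and 100% = native peptide agonist; compound fluorescence can raise it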
Numbers without * were called inactive; & = joins results of further samples.

Molecule	NPYLR7 agonist max-min	NPYLR7 agonist
COc1ccc(CC(=O)N2CCN(c3nccc(-c4ccc(N5CCOCC5)cc4)n3)CC2)cc1	3.9	1.7
C=CCN(C(C)C(=O)c1c(C)c(C(=O)OC)n(C)c1C)S(=O)(=O)c1ccc2ccccc2c1 (stereo not given)	-5.9	-12.2
NC(Cc1ccc(C(F)(F)F)cc1)c1csc(Nc2cnccn2)n1 (stereo not given)	-0.7	0.9
CCCSc1ncccc1C(=O)N[C@H](C)C(C)(C)C	-14.3	-7.6
CN1C(=O)/C(=C\c2ccc(N(C)C)cc2)SC1=S	-16.9	-7.7
CN1CCNC(=O)C12CCN(C(=O)c1ccc(-c3ncn[nH]3)cc1)CC2	7.4	20.1
O=C(CSc1ccc2nnc(-c3ccccc3)n2n1)NC1CCCC1	33.1	0.4
CCC(C)C(=O)N1CSCC1C(=O)NNC(=O)c1ccccc1C (stereo not given)	1.7	4.4
CCOC(=O)C1=C(O)/C(=C\c2ccc(O)c(C)c2)SC1=Nc1ccc(F)cc1	-15.0	-15.1
CCCn1c(=O)c(C(=O)NCCCOC)nn(-c2ccc(C)cc2)c1=O	11.0	14.7
COc1ccc(Br)c(C(=O)NCCOc2ccc3ccccc3c2)c1	2.9	2.8
CN(Cc1cccc(Cl)c1)C(=O)c1nc2n(n1)-c1ccccc1S(=O)(=O)N2	-2.7	0.6
CC(C)(C)c1csc(NC(=O)C23CC4CC(CC(C4)C2)C3)n1	-5.0&-3.1	-6.0&-2.2
CN1CCCn2nc(C(=O)NCCOc3cccc4cccnc34)cc2C1	-1.2	-0.5
O=C1CC(Nc2ccc3c(c2)OCCCO3)C(=O)N1CCc1ccccc1F (stereo not given)	1.3	3.7
O=C(c1cccc(F)c1)N(Cc1ccc(C(F)(F)F)cc1)CC1CC(c2ccc(F)cc2)=NO1 (stereo not given)	8.8	0.3
CCCCC(CC)C(=O)N1CCC(n2nc(C(=O)OCC)cc2-c2ccc(F)cc2)CC1 (stereo not given)	-2.1	0.7
Cn1cc(S(=O)(=O)NCC(C)(C)c2ccc3c(c2)OCO3)cc1C(N)=O	6.4	9.9
COC(=O)c1occc1C1Nc2ccccc2C(=O)N1c1cccc(C)c1 (stereo not given)	1.0	2.1
Cc1ccc(/C=C/c2nc(-c3ccccc3O)n[nH]2)o1	10.7	17.1
CCC(C)c1ccccc1OCC(=O)Nc1ccc(S(=O)(=O)N(C)Cc2ccccc2)cc1 (stereo not given)	15.6	14.5
Cc1ccc(NC(=O)C2CCCCC2)c(NC(=O)C(C)n2ccnc2)c1 (stereo not given)	9.0	13.4
COc1ccc(C(C)C)cc1-c1cnn2c(NCc3cc(OC)c(OC)c(OC)c3)ccnc12	-3.5	0.2
CCCc1ccc2oc(C(=O)N(C)C3CCOCC3)c(C)c2c1	-7.8	-0.8
CCOC(=O)c1nn(-c2ccccc2Cl)c(=O)cc1OCC(=O)NCc1ccc2c(c1)OCO2	7.0	11.5
CCOC(=O)c1cnc(-c2ccc(C(F)(F)F)cc2)nc1NCCSCc1ccco1	19.3	19.3
O=C(Nc1ccc2oc(=O)[nH]c2c1)C1CCN(c2ccc(Cl)cn2)CC1	20.9	18.6
COc1ccc(NC(=O)CCC2CCCN(Cc3nc4c(s3)CCCC4)C2)c(C)c1 (stereo not given)	-6.7	0.0
Cc1ccc(-c2ccc(CCC(=O)NCCCOC(C)C)n2-c2ccc(CC#N)cc2)c(C)c1	-5.5	-4.2
Cc1cc(O)c(CN(C)Cc2cnn(C)c2)cc1C	0.9	2.1
COc1ccc(C(NC(=O)C2CCN(CCCc3ccccc3)CC2)c2cccs2)cc1 (stereo not given)	4.5	17.0
CCOC(=O)C1CCN(C(=O)c2ccc(-n3nc(C)c(CCC(=O)OC)c3C)cc2)CC1	-1.3	0.4
CC1(C(=O)N2CCCCC2)CCN1C(=O)Cc1ccc(-c2ccccc2)cc1 (stereo not given)	3.1	3.5
COc1cccc(C(=O)Nn2cnc3c(cnn3C(C)(C)C)c2=O)c1	-0.9	1.3
COc1ccc(Nc2ncccc2C(=O)N2CCN(C(=O)c3cc(-c4ccccc4)nc4ccccc34)CC2)cc1	-16.0	-8.2
O=C(NCc1nnc(SCC(=O)N2CCc3ccccc32)n1-c1ccc(Cl)c(Cl)c1)c1c(F)cccc1Cl	5.0	-4.6
CN(C)c1cccc(C(=O)N2CCN(c3ccc(NC(=O)c4ccccc4F)cn3)CC2)c1	-1.0	3.2
CCOc1ccc(-n2c(C(CC)N(CC)C(=O)NC34CC5CC(CC(C5)C3)C4)nc3ccccc3c2=O)cc1 (stereo not given)	30.0	22.3
O=C(c1csc2c1CCCC2)N1CCCC(Nc2ccc3c(c2)OCCO3)C1 (stereo not given)	0.2	0.9
COCC(=O)NC1CCc2[nH]c3ccc(Br)cc3c2C1 (stereo not given)	15.0	22.0
CC1(C)ON=C(c2ccc3c(c2)OCO3)N(Cc2cccc(F)c2)C1=O	5.4	4.6
O=C([C@H]1[C@H]2C=C[C@]3(CN(C4CCCCC4)C(=O)[C@@H]13)O2)N1CCn2cncc2C1	-7.2	1.9
CC(=O)Nc1ccc(Sc2cc(=O)n3cc(C)ccc3n2)cc1	-0.7	2.8
COc1ccccc1N(C)CC(=O)Nc1nc(C)c(C)s1	-7.1	-4.4
Cc1cccnc1C(NC(=O)C1CCN(C(=O)NC(C)(C)C)CC1)c1ccc(F)cc1 (stereo not given)	-5.4	6.4
O=C1Sc2ccc(Br)c3cccc1c23	16.6	18.3
Cc1nc2sccn2c1C=NNc1ccc(S(=O)(=O)O)cc1	4.4	5.3
Cc1cc(N)n(-c2cc(NCc3ccc(C)c(F)c3)ncn2)n1	-1.2	-2.3
COc1cc(NC(=O)CSc2nccn2C2CC2)cc(OC)c1	-4.2	-1.6
Cc1nc2ccc(C(=O)NCCCN(C)C)cn2c1N(C)CC1CCCCC1	-11.6	-6.0

More structures.
Molecule	NPYLR7 agonist max-min	NPYLR7 agonist
NCC1CN(c2ccc(F)cc2)C(=O)O1 (stereo not given)	-4.8	-2.4
COc1ccc(C(=O)N2CCCC(OCc3ccc(C)cc3)C2)cc1 (stereo not given)	6.6	8.7
Cc1ccccc1NCc1ccc2ccccc2n1	-4.8	0.3
Cc1ccc(C2=NN3C(=N)/C(=C/c4ccc(F)cc4)C(=O)N=C3S2)cc1	-0.8	-0.6
Cc1ccc(C(=O)NNC(=O)[C@@H]2CCCC[C@@H]2C(=O)O)cc1Br	-5.6	0.2
CCOC(=O)C(C)(C#N)Cc1ccncc1 (stereo not given)	-0.2	-2.0
Cc1ccccc1Cn1c2c(c(C)c1C(=O)NC1CC1)CCCC2	11.4	-0.9
COc1cccc(Cn2c(=O)c(C(=O)O)nn(-c3cc(C)cc(C)c3)c2=O)c1	33.4	24.7
Cc1cccc(N(CCC#N)C(=O)Cc2cccs2)c1	3.3	6.3
CCc1nc2n(n1)C(=O)C(C(c1ccco1)N1CCN(Cc3ccccc3)CC1)S2 (stereo not given)	-9.4	-4.8
COc1ccc(S(=O)(=O)N(CC(=O)N[C@@H]2C[C@H]3CC[C@@H]2C3)c2ccc(C)cc2)cc1OC	-6.7	-17.8
COc1cccc(C(=O)N2CCC[C@@H]2C(=O)NCCCNC(=O)c2ccccc2)c1	2.9	0.1
CNS(=O)(=O)c1ccc(CN2CCC(CN)C2)cc1 (stereo not given)	4.0	5.6
CC(C)CCn1c(=O)c2c(nc3n2CCCN3c2ccc(Br)cc2)n(C)c1=O	3.4	0.3
CN(CC(=O)NCc1ccco1)C(=O)c1cn(-c2ccccc2)nc1-c1cccs1	-4.3	-4.7
CS(=O)(=O)N1CCOC(CNC(=O)c2cc3ccccc3s2)C1 (stereo not given)	-4.4	-5.7
CN1c2ccccc2C(=O)NC1c1cc2ccccc2nc1N1CCOCC1 (stereo not given)	2.8	9.1
CCN(CCO)c1ccc(Nc2cc(C(=O)N[C@H](CO)C(C)C)ncn2)cc1	-2.5	6.2
Cc1cccc(C)c1NC(=O)CN1CCN(C(=O)C2CSC3(C)CSCC(=O)N23)CC1 (stereo not given)	0.3	-0.8
CCCn1nc(C)c2c1NC(=O)CC2c1cn[nH]c1-c1cc(C)ccc1C (stereo not given)	-5.8	-3.7
COc1ccccc1-c1cc(C(=O)N2CCN(c3ccccc3Cl)CC2)nc2c(-c3ccccc3)c(C)nn12	5.2	-3.3
CS(=O)(=O)CC(=O)N1CCC(c2cc(Cc3ccccc3)[nH]n2)CC1	-6.3	-5.8
CC1CN(C)CCC1N(C)C(=O)C1CCCN(C(=O)N(C)C)C1 (stereo not given)	4.2	9.1
CN(C)c1ccc(NC(=O)CSc2nnc3ccccn23)cc1	16.0	23.8
Cc1c(C(=O)NCc2ccccc2C(F)(F)F)sc(=O)n1Cc1ccc2ccccc2c1	4.4	9.3

In another format: 21 of the compounds above
Value order – NPYLR7 agonist max-min, NPYLR7 agonist
Cc1ccc(C(=O)NNC(=O)[C@@H]2CCCC[C@@H]2C(=O)O)cc1Br
→ -5.6, 0.2
CCOC(=O)C(C)(C#N)Cc1ccncc1 (stereo not given)
→ -0.2, -2.0
Cc1ccccc1Cn1c2c(c(C)c1C(=O)NC1CC1)CCCC2
→ 11.4, -0.9
COc1cccc(Cn2c(=O)c(C(=O)O)nn(-c3cc(C)cc(C)c3)c2=O)c1
→ 33.4, 24.7
Cc1cccc(N(CCC#N)C(=O)Cc2cccs2)c1
→ 3.3, 6.3
CCc1nc2n(n1)C(=O)C(C(c1ccco1)N1CCN(Cc3ccccc3)CC1)S2 (stereo not given)
→ -9.4, -4.8
COc1ccc(S(=O)(=O)N(CC(=O)N[C@@H]2C[C@H]3CC[C@@H]2C3)c2ccc(C)cc2)cc1OC
→ -6.7, -17.8
COc1cccc(C(=O)N2CCC[C@@H]2C(=O)NCCCNC(=O)c2ccccc2)c1
→ 2.9, 0.1
CNS(=O)(=O)c1ccc(CN2CCC(CN)C2)cc1 (stereo not given)
→ 4.0, 5.6
CC(C)CCn1c(=O)c2c(nc3n2CCCN3c2ccc(Br)cc2)n(C)c1=O
→ 3.4, 0.3
CN(CC(=O)NCc1ccco1)C(=O)c1cn(-c2ccccc2)nc1-c1cccs1
→ -4.3, -4.7
CS(=O)(=O)N1CCOC(CNC(=O)c2cc3ccccc3s2)C1 (stereo not given)
→ -4.4, -5.7
CN1c2ccccc2C(=O)NC1c1cc2ccccc2nc1N1CCOCC1 (stereo not given)
→ 2.8, 9.1
CCN(CCO)c1ccc(Nc2cc(C(=O)N[C@H](CO)C(C)C)ncn2)cc1
→ -2.5, 6.2
Cc1cccc(C)c1NC(=O)CN1CCN(C(=O)C2CSC3(C)CSCC(=O)N23)CC1 (stereo not given)
→ 0.3, -0.8
CCCn1nc(C)c2c1NC(=O)CC2c1cn[nH]c1-c1cc(C)ccc1C (stereo not given)
→ -5.8, -3.7
COc1ccccc1-c1cc(C(=O)N2CCN(c3ccccc3Cl)CC2)nc2c(-c3ccccc3)c(C)nn12
→ 5.2, -3.3
CS(=O)(=O)CC(=O)N1CCC(c2cc(Cc3ccccc3)[nH]n2)CC1
→ -6.3, -5.8
CC1CN(C)CCC1N(C)C(=O)C1CCCN(C(=O)N(C)C)C1 (stereo not given)
→ 4.2, 9.1
CN(C)c1ccc(NC(=O)CSc2nnc3ccccn23)cc1
→ 16.0, 23.8
Cc1c(C(=O)NCc2ccccc2C(F)(F)F)sc(=O)n1Cc1ccc2ccccc2c1
→ 4.4, 9.3

Additional records:
Molecule	NPYLR7 agonist max-min	NPYLR7 agonist
O=C(NCCNc1ncccn1)N(CC1CC1)C1CCCCC1	0.3	10.5
CCN(CC)c1cc(C)nc(Nc2ccc(NC(=O)c3cccc4ccccc34)cc2)n1	5.2	10.5
c1ccc(CN2CCC(N3CCN(c4nc(-c5ccccc5)nc5c4CCC5)CC3)C2)cc1 (stereo not given)	-3.1	2.1
Cc1ccc(C)c(Cn2nnc(C(=O)Nc3cc(C)ccc3C)c2N)c1	5.1	-1.2
CCCC1(C2CCN(C(=O)C3=CCCC3)CC2)NC(=O)N(CCc2ccccn2)C1=O (stereo not given)	1.8	13.9
Cc1ccc2oc(=O)n(CC(=O)NC3CCC(n4cnnc4)CC3)c2c1 (stereo not given)	0.3	2.8
O=C(c1ccc([N+](=O)[O-])o1)N1CCCCCC1	5.4	5.8
CCOC(=O)C1=C(C)N=c2s/c(=C/c3cccs3)c(=O)n2C1c1ccccc1F (stereo not given)	-7.2	-2.3
Cc1ccc(CN=C(CC#N)c2ccc(F)cc2)cc1	3.9	3.6
Cc1ccccc1CSc1nnc(CNC(=O)Nc2cccc(F)c2)n1-c1ccc([N+](=O)[O-])cc1	18.6	19.4

Only part of the results is shown; rates above refer to the full screens.
